Compound activity deposited in PubChem by ICCB-Longwood Screening Facility, Harvard Medical School.
Vaccinia pol inh – blocks vaccinia virus processive DNA synthesis. normalized absorbance, % (test concentration not listed). AID 493162. 46,000 compounds, 0.94% hits. in vitro processive DNA synthesis, absorbance read-out; hits give low values; some inactives read as strong as hits;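 active means replicate mean up to 90% and picked by the depositor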;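 further: 100% = median of the test wells of a plate; 100 nL library stock went into each well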
The depositor's hits bear a star. Not all compounds are listed; count on the stated rates, not on these rows.

SMILES	Vaccinia pol inh
O=C1C(Nc2ccccc2)=CC(c2ccc(O)cc2)N1c1ccccc1 (stereo unspecified)	101.2
CCN(CC)c1cccc(OC(=O)/C=C/c2ccco2)c1	102.4
CCCN=c1cc(-c2ccccc2)oc2ccc(C)cc12	42.5*
Cc1ccccc1Oc1ccc(Oc2ccccc2C)nn1	105.7
CN(C(=O)CS(=O)(=O)c1cn(CC(=O)N2CCOCC2)c2ccccc12)c1ccccc1	102.0
O=c1oc2ccc3ccccc3c2cc1-c1nn(-c2ccccc2)cc1/C=N/O	100.0
O=c1[nH]cc(Sc2cccc3cccnc23)c(=O)[nH]1	100.9
Cn1nc(-c2ccccc2)cc1-n1cnc2ccccc21	99.2
Cc1ccc(-c2nc3ncccc3o2)cc1NC(=O)c1ccc(F)cc1	99.4
COc1ccc(-c2cc3nc(C)cc(C)n3n2)cc1	100.0
CCC(C)N(Cc1c[nH]c2ccccc12)C(=S)Nc1cccc(C)c1 (stereo unspecified)	100.3
COc1ccc(C2CC(=O)n3c(nc4ccccc43)S2)cc1 (stereo unspecified)	99.5
O=C(NCc1ccccn1)C(c1ccccc1)c1ccccc1	100.2
CCc1ccc2nc(N)sc2c1	95.4
O=C1NCCN1CCNC(=S)NC1CC1	102.7
CCOC(=O)Cn1ccc(C(F)(F)F)n1	104.6
CC(C)Cn1c2ccc(Br)cc2c2nc3ccccc3nc21	100.2
CC1=CC(=O)C=C(C)C1=NS(=O)(=O)c1ccccc1	100.3
NNC(=O)CCn1c(-c2ccccc2)c(-c2ccccc2)c2ccccc21	99.7
CC1(C)CC(=O)C=C(Nc2ccc(Br)cn2)C1	101.0
CCCSc1nnc(Cn2c(=O)sc3ccccc32)n1CCc1ccccc1	95.9
O=C(NC1CCCC1)c1cc(-c2ccc(Cl)s2)nc2ccccc12	100.7
O=C(CCC1COc2ccccc2O1)Nc1ncccc1O (stereo unspecified)	103.3
CCOC(=O)c1ccc2nc(C(F)(F)F)cc(NC3CCN(Cc4ccccc4)CC3)c2c1	104.7
CC(C)C(NS(=O)(=O)c1cccc2nsnc12)C(=O)NC1CCCC(C)C1C (stereo unspecified)	103.4
Cc1cc(C(=O)Nc2ccc(C(C)C)cc2)n(-c2ccccc2)n1	97.9
Cc1ccc(C2CC(c3ccccc3C)n3nc(N)nc3N2)cc1 (stereo unspecified)	100.0
O=C(Nc1ccncc1)c1snc2ccc(Cl)cc12	102.0
Cc1cc(C)c2c(n1)sc1c3c(c(=O)[nH]c12)C(c1cccc(Cl)c1)C(C#N)=C(N)O3 (stereo unspecified)	89.7
Cc1nnc(SCC(=O)N2CCOCC2)s1	98.6
O=C(O)Cn1c(=O)oc2ccccc21	100.6
N#Cc1cnc(Nc2ccccc2)nc1	89.5
Cc1cccc2nc(CNc3ccc(I)cc3)cn12	100.0
COc1ccccc1NC1=NC(C)(C)CS1	106.7
O=C(COC(=O)C1CC=CCC1C(=O)OCC(=O)c1ccc(Cl)cc1)c1ccc(Cl)cc1 (stereo unspecified)	99.6
O=C(CSc1nnc2sc3ccccc3n12)c1ccco1	100.3
N#CC1=C2SCN(Cc3ccccc3)CN2C(=O)CC1c1ccccc1 (stereo unspecified)	95.1
CCC(C)NC(=O)c1ccccc1-c1ccccc1C(=O)NC(C)CC (stereo unspecified)	105.7
CC(C)Cc1ccc(S(=O)(=O)N2c3cc(F)ccc3CCC2C)cc1 (stereo unspecified)	100.6
O=C(/C=C\c1cccs1)N1CCN(Cc2ccc3c(c2)OCO3)CC1	98.3
COCCn1c(=O)c(C#N)cc2c(=O)n3ccccc3nc21	102.3
CC(C)C(=O)NC1CCCCCCCCCCC1	98.6
Cc1ccc(SCC(=O)c2ccc(CC(=O)O)s2)cc1	90.2
CC(C)(C)c1cc(N)n(-c2ccccc2)n1	101.4
Cc1nc(SCC(=O)Nc2cccc(C(F)(F)F)c2)c2cnn(-c3ccccc3)c2n1	99.6
O=C1CSC(c2ccc(Br)cc2)N1C1CCCCC1 (stereo unspecified)	96.3
Clc1ccc(-c2ncc3ccccn23)cc1	99.8
COc1cc(Br)cc(/C=N/N(CCO)C2=NS(=O)(=O)c3ccccc32)c1OC	100.2
c1cc(-c2nc(-c3ccc4c(c3)OCCCO4)cs2)ccc1-c1csnn1	99.9
OC1(C(F)(F)F)CC(/C=C/c2cccs2)=NN1 (stereo unspecified)	101.4
CCc1ccc(NC(=O)C(CC)Sc2nc3nccnc3c(=O)n2CCc2ccccc2)cc1 (stereo unspecified)	104.1
CCCCC1(CO)C(=O)N(c2ccccc2)N(c2ccccc2)C1=O	104.3
Cc1ccc(NC(=O)CN2C(=O)S/C(=C/c3ccc(C)o3)C2=O)cc1	100.4
O=C(/C=C/c1ccccc1)N1CCN(C(=O)/C=C/c2ccccc2)CC1	109.2
O=C1Nc2ccccc2O/C1=C\c1ccc(C(=O)NC2CCCCC2)cc1	105.4
Cc1ccc(Cl)cc1N(C)C(=O)c1cc2c(C)nc3ccccc3c2o1	90.2
CC(c1ccccc1)n1c(OC(=O)N(C)C)nnc1SCC(=O)c1ccc2c(c1)OCCO2 (stereo unspecified)	102.7
COc1ccc(NCc2csc(-c3ccccc3)n2)cc1Cl	107.5
Cc1ccc(C(=O)NCc2ccc3c(c2)cc(C)n3C)cc1	104.1
O=C(CC12CC3CC(CC(Br)(C3)C1)C2)Nc1nncs1	100.3

(next part)
SMILES	Vaccinia pol inh
O=C1c2ccccc2C(=Cc2cccs2)c2ccccc21	100.1
O=C(Nc1sc2c(c1C(=O)NCc1ccco1)CCC2)c1ccc(F)cc1	102.3
CC1CN(CC(O)COCc2ccccc2)CC(C)O1 (stereo unspecified)	105.6
COc1ccccc1C(=O)COC(=O)Cc1ccc(Cl)cc1Cl	100.4
CN(C)c1cccc(C(=O)OCC(=O)NCc2ccccc2)c1	102.7
Cc1cc(NCc2cccnc2)n2c(nc3ccccc32)c1C#N	101.3
CC(=O)Nc1cccc(-n2nnc(SCc3cc(Cl)cc4c3OCOC4)n2)c1	100.2
COC(=O)c1cc(=O)nc2sc3ccccc3n12	100.1
COc1ccc(NC(=O)c2cc(C)nn2-c2ccccc2)cc1	95.4
COC(=O)c1scc2c(Oc3ccccc3C(F)(F)F)cc(C(F)(F)F)nc12	107.3
O=C(CN1C(=O)c2ccccc2S1(=O)=O)Nc1cccnc1	99.8
Cc1onc(NC(=O)NC(=O)c2ccccc2F)c1Br	100.1
O=c1occ(CO)c(O)c1CN1CCc2ccccc2C1	99.7
CC(C)=CCOc1ccc2c3c(c(=O)oc2c1C)CCCC3	105.1
Cc1nnn(C23CC4CC(CC(CC(=O)Nc5ccc(Cl)cc5)(C4)C2)C3)n1	101.4

Some of the entries so far, comma-delimited:
SMILES,Vaccinia pol inh
CN(C(=O)CS(=O)(=O)c1cn(CC(=O)N2CCOCC2)c2ccccc12)c1ccccc1,102.0
O=c1oc2ccc3ccccc3c2cc1-c1nn(-c2ccccc2)cc1/C=N/O,100.0
O=c1[nH]cc(Sc2cccc3cccnc23)c(=O)[nH]1,100.9
Cn1nc(-c2ccccc2)cc1-n1cnc2ccccc21,99.2

Next entries
SMILES	Vaccinia pol inh
Nc1nonc1-c1noc(-c2ccccc2)n1	99.8
Cc1noc(C)c1S(=O)(=O)NCCN1CCN(c2ccccc2F)CC1	98.5
Cc1cc2c(n1-c1ccc(C(=O)N3CCN(c4ccccc4)CC3)cc1)CCCCC2	106.4
COC(=O)CCC(=O)c1oc2ccc(OC)cc2c1N	104.1
CCCNS(=O)(=O)c1ccc2[nH]c(=O)ccc2c1	107.5
CCOC(=O)c1sc2ccc(S(=O)(=O)N3CC(C)CC(C)C3)cc2c1N (stereo unspecified)	100.9
O=C1/C(=C/c2ccccc2Cl)SC2N=C(c3ccccc3)NN12 (stereo unspecified)	101.4
COc1ccc(C(=O)N2CCc3ccccc32)cc1OC	101.8
CCC1c2[nH]c3ccccc3c2CCN1C(=O)c1ccc(Cl)cc1 (stereo unspecified)	103.3
Cc1nc(-c2ccncc2)nc(NCCNc2ccc(C(F)(F)F)cn2)c1Cl	99.0
COc1cc(S(=O)(=O)NCc2ccco2)c(OC)cc1Br	100.6
CCc1ccc(S(=O)(=O)c2cn(C)c3ccccc3c2=O)cc1	100.6
Cc1cccc(N2C(=O)CC(Sc3ncccc3C(=O)O)C2=O)c1 (stereo unspecified)	102.7
O=C(Nc1ccccc1C(=O)NCc1ccccc1)c1ccccc1	100.2
CCCC(C)C(=O)Nc1nnc(C)s1 (stereo unspecified)	98.8
NC1=NC(c2ccccc2)CC(=O)N1 (stereo unspecified)	100.4
Cn1cc(S(=O)(=O)CC(=O)N2CCCCCC2)c2ccccc21	98.8
Cc1ccc(-c2csc3ncnc(SCCC(=O)O)c23)cc1	96.1
COc1ccc(OCC(=O)NCC(=O)O)cc1	103.5
CN(C)/N=C(\NO)c1c(F)cccc1Cl	99.6
Cc1ccc(NC(=O)C2CCCN(S(=O)(=O)c3ccc4c(c3)CC(C)N4C(=O)C3CC3)C2)nc1 (stereo unspecified)	112.9
CN(Cc1ccccc1)S(=O)(=O)c1ccc2c(c1)n(C)c(=O)n2C	99.1
COc1ccc(Cl)cc1S(=O)(=O)NCc1cccnc1	98.1
Oc1ccccc1/C=N/C1=NNC(c2ccccc2)=CS1	93.2
O=c1[nH]c(CSc2cccc[n+]2[O-])nc2ccccc12	101.2
CCOc1ccc(NC(=O)c2c(N)sc3c2CCC3)cc1	98.3
NC(=O)c1sc2nc(C3CC3)cc(-c3cccs3)c2c1N	99.1
CCC(C)C(=O)O[C@H]1[C@H](O)C2C(CN3CC(C)CCC3[C@@]2(C)O)C2C[C@]34O[C@]5(O)C(OC(=O)C(C)(O)C(C)O)CC[C@@]3(C)C5C(OC(C)=O)[C@@H](OC(C)=O)C4[C@@]21O (stereo partly specified)	100.3
CCOC(=O)C(C)Sc1nc(-c2cccs2)ccc1C#N (stereo unspecified)	97.3
O=C(NC1CCCCC1)c1cc(-c2ccccc2)nc2ccccc12	100.6

Sorted by molecular weight (high to low): part of the list above
SMILES	Vaccinia pol inh
CCC(C)C(=O)O[C@H]1[C@H](O)C2C(CN3CC(C)CCC3[C@@]2(C)O)C2C[C@]34O[C@]5(O)C(OC(=O)C(C)(O)C(C)O)CC[C@@]3(C)C5C(OC(C)=O)[C@@H](OC(C)=O)C4[C@@]21O (stereo partly specified)	100.3
Cn1cc(S(=O)(=O)CC(=O)N2CCCCCC2)c2ccccc21	98.8
Cc1ccc(-c2csc3ncnc(SCCC(=O)O)c23)cc1	96.1
NC(=O)c1sc2nc(C3CC3)cc(-c3cccs3)c2c1N	99.1
COc1ccc(Cl)cc1S(=O)(=O)NCc1cccnc1	98.1
CCOc1ccc(NC(=O)c2c(N)sc3c2CCC3)cc1	98.3
Oc1ccccc1/C=N/C1=NNC(c2ccccc2)=CS1	93.2
O=c1[nH]c(CSc2cccc[n+]2[O-])nc2ccccc12	101.2
COc1ccc(OCC(=O)NCC(=O)O)cc1	103.5
NC1=NC(c2ccccc2)CC(=O)N1 (stereo unspecified)	100.4

Other entries.
SMILES	Vaccinia pol inh
N#Cc1cc(Cc2ccc(N)c(C#N)c2)ccc1N	100.2
Cc1ccc(S(=O)(=O)NCc2csc(-c3ccccc3)n2)c(C)c1	102.8
O=C(O)c1ccc(-n2cnc3ccccc3c2=O)cc1	105.4
O=c1oc2c3c(ccc2c2c1CCC2)OCN(c1ccccc1)C3	92.0
C=CCN1C(=O)/C(=C\c2ccccc2)SC1=S	101.5
CCOC(=O)C1(NC(=S)N2CCOCC2)Sc2cc(C)ccc2NC1=O (stereo unspecified)	100.1
CCOC(=O)Cc1nc(N)ncc1C(=O)OCC	100.7
Cc1nc(SCC(=O)c2c[nH]c3ccccc23)n[nH]1	100.4
Cc1cc(NC(=O)CC(c2ccccc2)c2ccccc2)no1	92.1
Nc1ccc(C(=O)Nc2ccc(C(=O)O)cc2N)cc1	99.3
CC(C)Cn1cc(C(=O)NCc2ccco2)c2c3ccccc3n(C)c2c1=O	100.4
Cn1nc(C(F)(F)F)c(C#N)c1N1CCN(c2ccccc2)CC1	83.4
Cc1cc(C)n(-c2ccc(-n3cccc3)cc2)n1	98.1
C=CCOc1c(Cl)cc(/C=N\n2nnnc2N)cc1OC	100.6
N#Cc1c(NC(=O)C2CC2)sc2c1CCC2	90.8
CCn1c(SCC(=O)N2CCCCC2)nnc1-c1ccccc1O	107.1
CC(=O)N1CCN(CC(O)COc2ccc(OCc3ccccc3)cc2)CC1 (stereo unspecified)	98.3
CCOC(=O)c1sc(COc2ccc(C3SCCS3)cc2)nc1C	101.7
c1ccc(N=C(Nc2ccccc2)Nc2ccccc2)cc1	102.3
O=C(Cc1ccccc1)Nc1ccccc1N1CCOCC1	90.3
COC(=O)C1=C(Nc2ccccc2NC(=O)c2ccccc2C(=O)O)CSC1	107.2
C=CCC1(CC(C)C)C(=O)NC(=O)NC1=O	96.3
CC(=O)Nc1ccc(C(=O)OCC(=O)N2CCc3ccccc3C2)cc1	103.7
COc1ccc(S(=O)(=O)N2C(C)CCCC2C)cc1 (stereo unspecified)	99.5
CCCCC1CCC(C(=O)Nc2nonc2-c2ccc(OCC)c(OCC)c2)CC1 (stereo unspecified)	112.2
Cc1ccc(N/C(=N/C(N)=S)c2ccccc2)cc1	99.9
CCOc1ccc(C(=O)Nc2nnc(C(C)C)s2)cc1	101.9
C[n+]1ccccc1/C=N/O	100.6
COC(=O)c1ccc2nc(C)ccc2c1	92.7
O=C(O)CN1C(=O)CSc2ccccc21	99.2
CCOC(=O)c1c(NC(=O)CSc2nc(C)cc(C)n2)sc2c1CCC2	95.6
FC(F)(F)Oc1ccc(N=Cc2ccc(Br)cc2)cc1	98.1
COc1ccccc1NC(=O)COc1ccccc1O	103.6
CCc1nc2c(cnn2-c2ccccc2)c(=O)n1CCc1ccccc1	100.1
N#Cc1c(/N=C/c2cccn2-c2ccc(S(N)(=O)=O)cc2)sc2c1CCCC2	99.9
COc1ccc(CCN2CC(C(=O)NCc3ccc(F)cc3)CC2=O)cc1OC (stereo unspecified)	95.2
Oc1[nH]c2c(Cl)cc(Cl)cc2c1N=C1N=c2ccccc2=N1	90.2
C=C1C(C(=O)Nc2ccccc2)C1C(=O)Nc1ccccc1 (stereo unspecified)	96.8
Cc1ccc(-c2nn(CCC(=O)O)cc2/C=C2\SC(N)=NC2=O)cc1	107.2
CC(=O)Nc1ccc(NC(=O)CC(c2ccccc2)c2ccccc2)cc1	98.5
Cc1cc(C)nc(-n2nc(C)cc2NC(=O)c2ccc(F)cc2F)n1	97.5
C=CCN1C(=O)/C(=C\c2ccccc2O)SC1=S	99.6
O=C(Cc1ccccc1)OCC(=O)N1CCC(Cc2ccccc2)CC1	93.6
